T cruzi repl – blocks replication of Trypanosoma cruzi | T. cruzi beta-gal in NIH3T3, luminescence, 90 h | inhibition, % (concentration not given with the values) | 300,000 tested, 1.4% active | AID 1885;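 active = mean inhibition across valid replicates above about 55%, limit read from the data; inconclusive = mean below that limit but half or more replicates reach it; inactive = mean below it, under half of replicates reach it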;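 also: signal also drops with host cell toxicity which is not excluded here; 0% = plate median of DMSO wells and 100% = zero luminescence signal; higher percent means less beta-gal luminescence so fewer parasites; stock transfer was 50 nL into about 50 µL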
Calb FLC – C. albicans growth modulation with fluconazole; 300,000 tested, 0.57% active; AID 1979; C. albicans CaCi-2 (fluconazole-resistant clinical isolate) + fluconazole, Alamar Blue growth, 48 h; growth inhibition, % (test concentration not listed);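 active = most replicates above 75%; inconclusive = exactly half above 75%; inactive = most below 75%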;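 also: all wells also contain fluconazole at 8 µg/ml as a sub-toxic cotreatment; 0% = median of DMSO wells and 100% = median of geldanamycin control wells; wells of about 8 µL received 7.5 nL stock; the first replicate is given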
LANA-H2A inh – blocks KSHV LANA binding to histone H2A/H2B; Q9QR71; cell-free LANA-H2A/H2B peptide, fluorescence polarization; inhibition, % (no concentration beside the values); 320,000 tested, 0.6% active; in the data active = inhibition mostly above about 10%, no sharp cut-off; inactive = mostly below about 6.7%;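 also: stock transfer was 7.5 nL into about 10 µL; 0% = median of vehicle wells and 100% = median of positive control wells; one replicate is shown; the record names a cut of 25% in any replicate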
Beta apoptosis – blocks beta cell apoptosis; INS-1E cytokine-induced death, ATP luminescence, 48 h; percent of positive-control rescue, neutral wells zero; protection from apoptosis, % (test concentration not listed); 300,000 tested, 0.8% active;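 active = all replicates at 75% or more, or half of them and the mean; inconclusive = half reach 75% but not the mean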;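 also: 0% = cytokine-treated negative control wells and 100% = positive control rescue; higher means more ATP so stronger rescue from cytokine killing; wells of about 40 µL received 100 nL stock; the first replicate is given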
Bfl-1 A1 inh – inhibitors of the anti-apoptotic protein A1, read as caspase activation | MEF A1-2A-BIM cells, Caspase-Glo 3/7 luminescence, 3 h; percent of clofoctol response, vehicle zero | caspase activation, % (concentration not given with the values) | 330,000 tested, 0.066% active;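 active = over half of replicate activation scores above 10%, or exactly half above 10 with the replicate mean above 10; inconclusive = replicate mean below 10 yet half the replicates above 10; inactive = over half of replicates below 10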;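 also: wells of about 30 µL received 50 nL stock; many hits fall short of the cut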
B2AR ag – agonists of human beta-2 adrenergic receptor inducing internalization; P07550; Am2.2-beta2AR cells, FAP receptor internalization, flow cytometry; reference of the scale not given here; response, % (no concentration beside the values); 340,000 tested, 0.43% active;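 active = response above a set limit, near 3 SD of response in nonfluorescent compounds, cut at about 42% in these data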;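 also: stock transfer was 100 nL into about 11 µL; a reference agonist was the positive control; negative values mostly stem from fluorescent compounds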
Target sequence (P07550 whole entry, looked up): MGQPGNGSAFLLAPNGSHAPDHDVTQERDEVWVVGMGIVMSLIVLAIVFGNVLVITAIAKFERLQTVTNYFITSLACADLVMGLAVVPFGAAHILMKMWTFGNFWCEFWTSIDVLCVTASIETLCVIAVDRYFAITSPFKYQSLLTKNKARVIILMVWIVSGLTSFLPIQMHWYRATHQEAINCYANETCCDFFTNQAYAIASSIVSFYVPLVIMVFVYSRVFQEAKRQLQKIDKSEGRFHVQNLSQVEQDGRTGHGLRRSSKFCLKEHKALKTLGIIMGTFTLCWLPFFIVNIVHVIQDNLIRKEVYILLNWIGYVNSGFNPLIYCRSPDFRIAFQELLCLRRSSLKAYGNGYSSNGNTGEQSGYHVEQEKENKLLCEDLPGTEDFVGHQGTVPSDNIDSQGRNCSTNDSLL
RanGTP-Imp inh – inhibitors of RanGTP-importin-beta interaction, primary screen, biochemical, FRET, CFP-Ran, YFP-importin-beta, homogeneous; cell-free CFP-Ran/YFP-importin-beta FRET ratio; inhibition, % (test concentration not listed); 300,000 tested, 1.1% active; AID 2216;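 active = most replicates above 15%; inconclusive = exactly half above 15%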;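 also: 0% = DMSO wells and 100% = Ran loaded with GDP instead of GTP; wells of about 40 µL received 100 nL stock; the first replicate is given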
UCH37 DUB inh – inhibitors of human deubiquitinating enzyme UCH37. AID 588478. inhibition, % (no concentration beside the values). Q9Y5K5. purified proteasome/UCH37, Ub-AMC cleavage fluorescence. 330,000 tested, 0.33% active;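 active = mean of two replicates above 20%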;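 also: 0% = compound-free wells with enzyme and 100% = wells lacking proteasome; stock transfer was 100 nL into about 20 µL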
Target sequence (Q9Y5K5 whole entry, looked up): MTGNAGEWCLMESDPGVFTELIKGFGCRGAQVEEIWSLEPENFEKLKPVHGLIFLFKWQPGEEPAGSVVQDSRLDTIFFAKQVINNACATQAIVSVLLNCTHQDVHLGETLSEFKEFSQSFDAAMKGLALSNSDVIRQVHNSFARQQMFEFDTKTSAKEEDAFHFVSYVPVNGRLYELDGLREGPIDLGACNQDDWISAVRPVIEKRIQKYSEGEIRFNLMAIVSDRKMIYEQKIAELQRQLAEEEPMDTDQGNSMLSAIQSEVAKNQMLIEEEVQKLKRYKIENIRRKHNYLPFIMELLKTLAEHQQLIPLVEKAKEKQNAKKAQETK
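Material: Human UCH37 enzyme supplied as purified proteasome complex | Schedule: 30 min preincubation with enzyme, 25 min cleavage at room temperature | Detection: AMC fluorescence 355/460 nm | Measure: % inhibition of Ub-AMC cleavage fluorescence | Controls: Wells without proteasome as full block, compound-free enzyme plus substrate as uninhibited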
* = called active by the depositor; u = inconclusive; x = no result given.

SMILES | T cruzi repl | Calb FLC | LANA-H2A inh | Beta apoptosis | Bfl-1 A1 inh | B2AR ag | RanGTP-Imp inh | UCH37 DUB inh
O=C(O)C1Cc2c([nH]c3ccccc23)C(c2ccc3c(c2)OCO3)N1 (stereo unspecified) | -10.4 | 3.4 | 6.5 | 8.4 | -0.6 | 10.2 | -3.1 | -1.1
CCOC(=O)CN1C(=O)C(Sc2n[nH]c(-c3ccc(O)cc3)n2)CCc2ccccc21 (stereo unspecified) | 11.6 | -0.4 | 0.8 | -3.3 | 0.4 | 11.7 | -6.0 | 3.2
Cc1ccc(CS(=O)(=O)CC(C)(O)c2ccc(Cl)cc2)cc1 (stereo unspecified) | 25.1 | 2.7 | 5.7 | -4.7 | 0.7 | -1.6 | -4.6 | 4.1
O=C(O)CC1(CC(=O)Nc2ccc3ccccc3n2)CCCCC1 | -16.4 | 21.4 | -5.8 | 2.2 | -0.7 | -0.9 | 4.5 | 3.0
O=C1C(=O)N(CCO)C(c2ccc(Br)cc2)/C1=C(\O)c1ccccc1 (stereo unspecified) | -2.5 | -1.1 | -2.3 | 1.9 | -0.1 | 1.3 | u | 8.3
COC(=O)c1ccccc1NC(=O)C(=O)NCC1CCCO1 (stereo unspecified) | -7.6 | 1.1 | -0.3 | -2.3 | -0.6 | 1.6 | 3.5 | 0.8
COc1ccc(Br)cc1CN(C)CC(=O)Nc1cccc(S(N)(=O)=O)c1 | 6.9 | -18.3 | 2.9 | 3.7 | -0.9 | 15.2 | 0.0 | 2.8
CCOC1OC(=O)C(Cl)=C1Nc1cc(C)ccc1C (stereo unspecified) | -4.3 | -13.8 | 2.3 | x | -0.5 | 1.0 | -1.8 | 1.0
CCOC(=O)c1[nH]c(C)c(C(=O)OCC(=O)N(CC)C2CCS(=O)(=O)C2)c1C (stereo unspecified) | -12.9 | 4.2 | 2.6 | 5.9 | -0.9 | -3.1 | 1.8 | 3.3
COc1ccccc1-c1nnc(SCC(=O)OC(C)C)o1 | -1.8 | 12.4 | -0.9 | -2.7 | -0.4 | 2.4 | 0.6 | 2.0
CC(=O)CC1OC(=O)C(Br)=C1NCc1ccccc1 (stereo unspecified) | 58.5* | -4.8 | -2.8 | -5.4 | -1.2 | 32.7 | 0.0 | 1.5
CCOc1ccc(NC(=O)CSc2nccn2Cc2ccco2)cc1 | 3.9 | 0.0 | 3.1 | -6.0 | 1.0 | -6.0 | 3.5 | 1.6
COc1ccccc1-c1ccc(SCC(=O)N2CCOCC2)nn1 | -2.8 | -4.9 | -9.7 | -0.8 | 0.5 | -2.0 | 3.1 | x
CC(C)OC(=O)c1cccc(NC(=O)c2ccccc2)c1 | -7.2 | 1.5 | 1.7 | 3.1 | -1.4 | 1.1 | 0.4 | 3.7
CCN(CCCNC(=O)C1CCCN(S(=O)(=O)CC)C1)c1cccc(C)c1 (stereo unspecified) | 12.7 | -12.3 | -3.6 | 1.9 | -0.3 | -7.4 | -4.1 | 3.8
CCC(=NNC(=O)c1cccc(S(=O)(=O)N2CCOCC2)c1)c1ccccc1 | x | x | -0.1 | -1.1 | 0.7 | 7.0 | x | 5.5
CC(Sc1nnnn1-c1ccccc1)C(=O)Nc1ccccc1-c1ccccc1 (stereo unspecified) | 1.4 | 5.7 | -3.8 | -5.9 | 0.8 | 1.0 | -0.6 | 2.7
O=[N+]([O-])c1ccccc1S(=O)(=O)N1CCN(CC2CC3C=CC2C3)CC1 (stereo unspecified) | 4.7 | -29.2 | 0.2 | x | 0.8 | 10.8 | 0.4 | -0.6
CCCCn1c(N)c(N(CC(C)C)C(=O)CC2CCCCC2)c(=O)[nH]c1=O | -8.6 | 2.6 | 0.8 | -1.9 | 0.0 | -3.7 | -1.4 | 4.7
COc1cccc(-c2nc(CS(=O)(=O)CC(=O)Nc3ccccc3Br)c(C)o2)c1 | 8.4 | -15.4 | 0.6 | -1.9 | -0.2 | -1.5 | 5.5 | 0.8
Clc1nc2ccccc2cc1-c1nnn(-c2ccccc2Br)n1 | 6.5 | 1.4 | 6.9 | -3.8 | -0.1 | -11.7 | -2.4 | -0.4
CCN(CC)CCCCN1c2ccccc2Sc2ccccc21 | 31.9 | 9.3 | 0.6 | 0.1 | 0.4 | 6.6 | 7.4 | -0.9
N#CCCn1cc(/C=N/NC(=O)c2ccncc2)c(-c2ccc(F)cc2)n1 | -12.1 | 17.6 | -1.5 | 0.3 | 0.5 | -11.2 | -1.5 | x
O=C(N/N=C/c1ccc(-c2cccc(C(F)(F)F)c2)o1)c1ccccc1O | -5.0 | 4.3 | -7.0 | 6.9 | 1.1 | 2.6 | -1.3 | x
CC(C)(C)c1ccc(OCC(=O)N2CCN(c3ccccn3)CC2)cc1 | x | x | 4.2 | 0.4 | 0.4 | -1.4 | x | -1.2
CC(C)n1cnc2c(N(C)c3cccc(Cl)c3)nc(N(CCO)CCO)nc21 | 19.8 | 0.9 | 1.9 | -5.7 | -0.4 | -3.1 | 5.4 | 3.0
COc1cc2c(cc1NC(=O)/C=C/c1ccccc1)oc1ccccc12 | 28.5 | u | -2.7 | 8.7 | -0.1 | 7.8 | -2.4 | -2.0
CCc1cc2c(NC(C(=O)O)C(C)C)ncnc2s1 (stereo unspecified) | -18.7 | -3.9 | -0.7 | x | -0.3 | -3.4 | 5.1 | 0.3
COc1ccc(OC)c(NC(=O)C(=O)NCCC2=CCCCC2)c1 | 17.9 | -6.3 | 1.7 | 0.5 | 0.3 | 5.9 | 0.9 | 1.0
CCOC(=O)c1cnc2c(cnn2C)c1NCCCn1ccnc1 | -2.8 | 7.0 | -2.1 | 3.4 | -0.4 | -7.4 | -1.1 | 2.1
COC(=O)CNC(c1ccccc1)c1cc(C)ccc1NC(=O)CNC(=O)OCc1ccccc1 (stereo unspecified) | 16.2 | -1.1 | 5.1 | x | -1.2 | 2.9 | 1.8 | -1.2
COc1ccc(NC(=O)c2ccc(-c3ccccc3C(F)(F)F)o2)cc1 | -17.9 | -8.4 | 2.2 | 0.4 | -1.1 | 4.6 | u | 2.2
O=C(CSc1nnc(-c2ccccc2)o1)NC(=O)Cc1ccccc1 | x | x | -8.6 | -2.8 | -0.3 | -3.1 | x | 0.7
Cc1nn(-c2ccccc2)c(C)c1NC(=O)COC(=O)c1ccc(NC(=O)CC#N)cc1 | -14.2 | -12.9 | 3.9 | -1.2 | -0.4 | 9.0 | -2.9 | -1.9
CN(C)CCCNC(CC(=O)Nc1cccc([N+](=O)[O-])c1)C(=O)O (stereo unspecified) | 4.7 | -6.3 | 2.1 | -1.6 | 0.1 | -5.2 | -3.2 | 0.8
O=C(CNC(=O)c1cccs1)NCC(=O)OCC(=O)c1ccc([N+](=O)[O-])cc1 | 8.5 | 1.5 | -2.5 | 2.0 | 0.0 | 6.1 | 3.6 | 3.5
CC(C)CNC(=O)C1CCN(CC2CCCCC2)CC1 | -31.9 | -8.7 | 7.1 | -2.7 | -0.2 | -4.3 | 0.0 | 4.9
COc1ccc(CNC(=O)CN(C(=O)c2csnn2)c2cccc3c2CCCC3)cc1 | -3.2 | -7.1 | 0.1 | 1.0 | 0.0 | -3.9 | -0.9 | 5.5
O=C(COc1cccc(C(F)(F)F)c1)Nc1ccccc1N1CCCCC1 | 11.8 | 1.3 | 5.9 | 3.5 | -0.6 | -1.2 | -3.8 | 3.9
CCc1noc(C)c1C(=O)OC(C)C(=O)Nc1ccc(Cl)cn1 (stereo unspecified) | x | x | -3.6 | -5.9 | -0.1 | 7.3 | x | x
CN(Cc1cn[nH]c1-c1ccc2c(c1)OCO2)C1CCOCC1 | -16.6 | 1.0 | -6.4 | 1.8 | 0.5 | 7.9 | 3.7 | 1.4
O=C(NCCc1ccccc1)C1=COCCO1 | -9.7 | -6.1 | -3.8 | x | 0.1 | -4.2 | -0.5 | 1.2
O=C(O)c1ccc(NC(=S)NC(NC(=O)c2ccco2)C(Cl)(Cl)Cl)cc1 (stereo unspecified) | -23.0 | -21.3 | -1.4 | -4.2 | 0.3 | 1.3 | -1.9 | 3.6
O=C(Nc1cc(Cl)ccn1)C1(c2ccccc2)CC1(Cl)Cl (stereo unspecified) | x | 2.5 | -0.3 | 7.5 | 0.6 | -2.2 | -0.8 | -0.1
S=c1[nH]ccn1-c1ccc(Cl)cc1 | -19.6 | -18.6 | 0.5 | 0.6 | 0.0 | 0.1 | -1.2 | 1.1
Cc1ccc(SCC(=O)Nc2ccc(N3CCN(C)CC3)c(F)c2)cc1 | 35.9 | -6.8 | 2.6 | -6.1 | 0.5 | -1.9 | -0.2 | 4.5
O=C(NCc1cccnc1)c1ccc2c(c1)OCO2 | -8.3 | -0.2 | 1.6 | -0.2 | 1.1 | 1.5 | 0.0 | 2.9
NS(=O)(=O)c1ccc(N/N=C/c2ccncc2)cc1 | 11.8 | 0.8 | -0.8 | 0.4 | -0.5 | -0.4 | 0.4 | x

2 records drawn at random from the list so far, as already listed:
SMILES | T cruzi repl | Calb FLC | LANA-H2A inh | Beta apoptosis | Bfl-1 A1 inh | B2AR ag | RanGTP-Imp inh | UCH37 DUB inh
S=c1[nH]ccn1-c1ccc(Cl)cc1 | -19.6 | -18.6 | 0.5 | 0.6 | 0.0 | 0.1 | -1.2 | 1.1
O=C(Nc1cc(Cl)ccn1)C1(c2ccccc2)CC1(Cl)Cl (stereo unspecified) | x | 2.5 | -0.3 | 7.5 | 0.6 | -2.2 | -0.8 | -0.1

(listing goes on)
SMILES | T cruzi repl | Calb FLC | LANA-H2A inh | Beta apoptosis | Bfl-1 A1 inh | B2AR ag | RanGTP-Imp inh | UCH37 DUB inh
Cc1ccc(NC(=O)/C=N/OCC(=O)NCc2ccccc2Cl)cc1 | 8.7 | -3.0 | -5.5 | -0.7 | 0.4 | -2.9 | -2.3 | x
Cc1nc(Nc2cccc(O)c2)c2c3c(sc2n1)CCC3 | 6.8 | -8.2 | -1.9 | -4.2 | -1.1 | -1.2 | 1.9 | 0.8
COc1ccc(Br)cc1CNC(=O)C1CCN(S(=O)(=O)N2CCC(C)CC2)CC1 | 23.1 | -3.4 | -1.9 | 5.0 | 0.3 | -11.1 | -1.0 | -1.3
CCCSc1nnc(CSc2ncccn2)n1C | -9.0 | -24.2 | 2.4 | -4.7 | 0.8 | 2.5 | -1.4 | -0.2
COc1ccc(N2CC(C(=O)NCCCN3CCOCC3)CC2=O)cc1 (stereo unspecified) | -19.8 | 19.4 | 2.6 | -5.8 | 1.5 | -1.5 | -0.3 | 2.5
CN(C)CCc1cc2c(c3c1ccc1ccccc13)OCO2 | 34.2 | -15.9 | -1.4 | 57.5 | 0.2 | 37.5 | -3.7 | -35.5
CCc1ccccc1NS(=O)(=O)c1ccc2[nH]cc(C(=O)NCC3CCCO3)c(=O)c2c1 (stereo unspecified) | -6.2 | 2.7 | -1.9 | 2.6 | -0.8 | -0.2 | 4.1 | -2.0
COc1ccccc1-n1ccnc(SCC(=O)NCc2ccccc2)c1=O | -3.2 | 0.6 | x | -9.8 | 1.2 | 8.3 | 3.8 | -7.1
NC(=O)c1ccc(CN2CCc3ccccc3C2)cc1 | -3.5 | 0.9 | 1.1 | x | 0.5 | 4.8 | 2.8 | -1.1
